A1 inh = inhibitors of the anti-apoptotic protein A1, read as caspase activation | MEF A1-2A-BIM cells, Caspase-Glo 3/7 luminescence, 3 h; percent of clofoctol response, vehicle zero | caspase activation, % (no concentration beside the values) | hit rate 0.066% among 330,000 | AID 2462;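 active means over half of replicate activation scores above 10%, or exactly half above 10 with the replicate mean above 10; inconclusive means replicate mean below 10 yet half the replicates above 10; inactive means over half of replicates below 10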;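 further: wells of about 30 µL received 50 nL stock; many hits fall short of the cut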
AF4-AF9 inh = inhibitors of human MLL-AF4/AF9 interaction. P42568. AlphaScreen, biotin-AF4 peptide binding to FLAG-AF9. inhibition, % at 10 µM. hit rate 0.47% among 350,000. AID 651704;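 active means every replicate reaching a set inhibition limit, whatever the replicate mean, cut at about 25% in these data; inconclusive means mean inhibition reaches that limit but some replicates miss it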;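 further: 0% = plate neutral control median and 100% = total signal loss; the record names both 10 and 1 µM as test concentration; the first replicate is given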
Target sequence (P42568 whole entry, looked up): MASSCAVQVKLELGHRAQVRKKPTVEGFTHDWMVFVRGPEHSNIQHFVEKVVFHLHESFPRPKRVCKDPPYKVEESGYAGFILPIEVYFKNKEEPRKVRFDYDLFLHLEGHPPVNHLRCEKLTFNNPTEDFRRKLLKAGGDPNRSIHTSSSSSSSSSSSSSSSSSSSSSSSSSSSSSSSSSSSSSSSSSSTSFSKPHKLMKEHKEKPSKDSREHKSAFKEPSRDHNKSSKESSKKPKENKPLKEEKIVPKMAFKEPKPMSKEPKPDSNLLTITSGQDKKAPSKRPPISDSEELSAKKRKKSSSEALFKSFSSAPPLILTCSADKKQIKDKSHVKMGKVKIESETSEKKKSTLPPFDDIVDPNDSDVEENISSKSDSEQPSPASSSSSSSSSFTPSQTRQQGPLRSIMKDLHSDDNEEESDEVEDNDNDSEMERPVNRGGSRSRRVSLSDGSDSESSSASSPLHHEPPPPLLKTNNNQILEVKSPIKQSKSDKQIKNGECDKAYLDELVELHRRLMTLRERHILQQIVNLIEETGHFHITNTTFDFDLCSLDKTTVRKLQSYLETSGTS
Ecoli rRNA inh = selective bacterial rRNA inhibition in E. coli; E. coli WT GFP vs humanized-ribosome RFP mutants, fluorescence, 24 h; active compounds read low; DMSO median 0, no signal -100; GFP signal change (wild-type ribosome), % (concentration not given with the values); hit rate 1.6% among 350,000;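 active means significant combined selectivity score with lowered wild-type GFP, culture density cut under 30%, mutant RFP and density less affected; inactive means any of these conditions unmet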; further: one replicate is shown; some compounds called inactive have numbers as strong as hits
T cruzi inh = T. cruzi replication inhibition | AID 1885 | inhibition, % (test concentration not listed) | hit rate 1.4% among 300,000 | T. cruzi beta-gal in NIH3T3, luminescence, 90 h;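 active means mean inhibition across valid replicates above about 55%, limit read from the data; inconclusive means mean below that limit but half or more replicates reach it; inactive means mean below it, under half of replicates reach it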;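 further: signal also drops with host cell toxicity which is not excluded here; 0% = plate median of DMSO wells and 100% = zero luminescence signal; higher percent means less beta-gal luminescence so fewer parasites; stock transfer was 50 nL into about 50 µL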
Calb FLC = C. albicans growth modulation with fluconazole | growth inhibition, % (concentration not given with the values) | C. albicans CaCi-2 (fluconazole-resistant clinical isolate) + fluconazole, Alamar Blue growth, 48 h | hit rate 0.57% among 300,000;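 active means most replicates above 75%; inconclusive means exactly half above 75%; inactive means most below 75%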;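 further: all wells also contain fluconazole at 8 µg/ml as a sub-toxic cotreatment; 0% = median of DMSO wells and 100% = median of geldanamycin control wells; wells of about 8 µL received 7.5 nL stock; the first replicate is given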
RanGTP-Imp inh = inhibitors of RanGTP-importin-beta interaction, primary screen, biochemical, FRET, CFP-Ran, YFP-importin-beta, homogeneous; cell-free CFP-Ran/YFP-importin-beta FRET ratio; inhibition, % (test concentration not listed); hit rate 1.1% among 300,000; AID 2216;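 active means most replicates above 15%; inconclusive means exactly half above 15%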;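 further: 0% = DMSO wells and 100% = Ran loaded with GDP instead of GTP; wells of about 40 µL received 100 nL stock; the first replicate is given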
Vif A3G = HIV-1 Vif–A3G interaction blockers – biochemical, TR-FRET, GST-Vif 1-94, biotin-A3G peptide, dose response retest, primary screen (AID 1117319); TR-FRET GST-Vif / biotin-A3G peptide binding; higher % means a stronger effect; test concentration not given here; strong numbers were not always called active; inhibition, %, or IC50 in µM where a hit was titrated; hit rate 0.57% among 260,000;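 active means above the screen mean plus three standard deviations and confirmed in dose response; inconclusive means results disagree or hit not tested in dose response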;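 further: Vif residues 1-94 fused to GST binding biotinylated APOBEC3G peptide 110-148; 0% = full assay without inhibitor and 100% = GST in place of GST-Vif; retest series ran down from 100 µM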
Beta cell apopt = blocks beta cell apoptosis | INS-1E cytokine-induced death, ATP luminescence, 48 h; percent of positive-control rescue, neutral wells zero | protection from apoptosis, % (concentration not given with the values) | hit rate 0.8% among 300,000;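 active means all replicates at 75% or more, or half of them and the mean; inconclusive means half reach 75% but not the mean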;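 further: 0% = cytokine-treated negative control wells and 100% = positive control rescue; higher means more ATP so stronger rescue from cytokine killing; wells of about 40 µL received 100 nL stock; the first replicate is given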
Ecoli rRNA inh OD600 = also measured in Ecoli rRNA inh; calls as there; OD600 change, %; measured here: OD600 growth;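 optical density of the mix in the first replicate; 0 = DMSO median and -100 = no signal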
Ecoli rRNA inh RFP = second read-out of Ecoli rRNA inh, no call of its own (marks repeat the call); RFP signal change, %; measured here: RFP humanized mutant strains;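 first replicate; 0 = DMSO median and -100 = no signal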
* = called active by the depositor; & = joins results of further samples. These rows are one share of the data; the hit share may differ from the screen's.

Sample of the layout:
COc1cccc(NC(=S)N2c3ccccc3CC2C)c1 (stereo unspecified) was read as A1 inh 0.2, AF4-AF9 inh 1.6, Ecoli rRNA inh 8, T cruzi inh -13, Calb FLC -2, RanGTP-Imp inh -1.0, Vif A3G 1%, Beta cell apopt -5, Ecoli rRNA inh OD600 9 and Ecoli rRNA inh RFP -0.8.
CCN(CC)c1ccc(/C=C(/C#N)C(=O)NC(C)C)o1 was read as A1 inh 0.2, AF4-AF9 inh 1.1, Ecoli rRNA inh 7, T cruzi inh -8, Calb FLC -20, RanGTP-Imp inh -1.8, Vif A3G 4%, Beta cell apopt 2, Ecoli rRNA inh OD600 8 and Ecoli rRNA inh RFP 2.4.

The whole of this part, repeating the preview:
COc1cccc(NC(=S)N2c3ccccc3CC2C)c1 (stereo unspecified) was read as A1 inh 0.2, AF4-AF9 inh 1.6, Ecoli rRNA inh 8, T cruzi inh -13, Calb FLC -2, RanGTP-Imp inh -1.0, Vif A3G 1%, Beta cell apopt -5, Ecoli rRNA inh OD600 9 and Ecoli rRNA inh RFP -0.8.
CCN(CC)c1ccc(/C=C(/C#N)C(=O)NC(C)C)o1 was read as A1 inh 0.2, AF4-AF9 inh 1.1, Ecoli rRNA inh 7, T cruzi inh -8, Calb FLC -20, RanGTP-Imp inh -1.8, Vif A3G 4%, Beta cell apopt 2, Ecoli rRNA inh OD600 8 and Ecoli rRNA inh RFP 2.4.
Screening CCCCn1c(N)c(N(CCOC)C(=O)C2CC(=O)N(Cc3ccc(C)cc3)C2)c(=O)[nH]c1=O (stereo unspecified) returned A1 inh 0.7, AF4-AF9 inh -1.1, Ecoli rRNA inh 3, T cruzi inh -3, Calb FLC -1, RanGTP-Imp inh -1.6, Vif A3G 6%, Beta cell apopt -3, Ecoli rRNA inh OD600 12 and Ecoli rRNA inh RFP -2.5.
`O=C(O)c1cccc(NC(=O)c2cc(S(=O)(=O)N3CCOCC3)cs2)c1` gave A1 inh -2.1, AF4-AF9 inh -0.2, Ecoli rRNA inh 14, T cruzi inh -15, Calb FLC -13, RanGTP-Imp inh 2.2, Vif A3G -3%, Beta cell apopt -3, Ecoli rRNA inh OD600 8 and Ecoli rRNA inh RFP 1.0.
For CC(C)(C)c1ccc(C(O)CCCN2CCC(C(O)(c3ccccc3)c3ccccc3)CC2)cc1 (stereo unspecified) the results were A1 inh 1.1, AF4-AF9 inh 14, T cruzi inh 26, RanGTP-Imp inh -1.1 and Beta cell apopt inconclusive.
`Cc1cc(C(=O)NC(C)Cc2ccccc2)cc(C)c1[N+](=O)[O-]` (stereo unspecified) gave A1 inh 0.4, AF4-AF9 inh 1.5, Ecoli rRNA inh -1, T cruzi inh 7, Calb FLC 3, RanGTP-Imp inh inconclusive, Vif A3G 5%, Beta cell apopt 6, Ecoli rRNA inh OD600 -1 and Ecoli rRNA inh RFP 1.2.
For Nc1nc(CN2CCN(c3ccccc3F)CC2)nc(N2CCCc3ccccc32)n1 the results were A1 inh -0.4, AF4-AF9 inh -3.0, Ecoli rRNA inh -24, T cruzi inh -6, Vif A3G 29%, Beta cell apopt -4, Ecoli rRNA inh OD600 -27 and Ecoli rRNA inh RFP -2.8.
For CC(=O)Nc1ccc(S(=O)(=O)N2CCC(C(=O)NCCc3ccc(Cl)cc3)CC2)cc1 the results were A1 inh 0.9, AF4-AF9 inh -2.8, Ecoli rRNA inh 5, T cruzi inh 5, Calb FLC 6, RanGTP-Imp inh 2.1, Vif A3G -4%, Beta cell apopt -1, Ecoli rRNA inh OD600 21 and Ecoli rRNA inh RFP -0.7.
For Cc1cccc(N2C(=O)C(Oc3ccc(Cl)cc3Cl)C2C=O)c1C (stereo unspecified) the results were A1 inh -0.8, AF4-AF9 inh -0.8, Ecoli rRNA inh -54, Vif A3G 2%, Beta cell apopt 4, Ecoli rRNA inh OD600 -78 and Ecoli rRNA inh RFP -23.
`C=CCN1C(=O)C(CC(=O)Nc2ccc(OC)cc2)N(Cc2ccco2)C1=S` (stereo unspecified) gave A1 inh 1.8, T cruzi inh -8, Calb FLC -3, RanGTP-Imp inh -1.2, Vif A3G 1% and Beta cell apopt -3.
For COc1ccc(CNC(=O)CCCC(=O)n2nc(C)c3ccccc32)cc1 the results were A1 inh 0.1, AF4-AF9 inh -1.1, Ecoli rRNA inh 16, T cruzi inh -2, Calb FLC 8, RanGTP-Imp inh 1.4, Beta cell apopt 1, Ecoli rRNA inh OD600 14 and Ecoli rRNA inh RFP 3.1.
`COc1ccc(N2CCN(C(=O)[C@H](Cc3c[nH]c4ccccc34)NC(C)=O)CC2)cc1` gave A1 inh -0.5, AF4-AF9 inh 0.8, Ecoli rRNA inh 6, T cruzi inh -6, Calb FLC -21, RanGTP-Imp inh 5.9, Vif A3G 13%, Beta cell apopt 3, Ecoli rRNA inh OD600 -1 and Ecoli rRNA inh RFP 1.3.
For CC(NC(=O)c1ccc2c(c1)OCO2)c1cccc(C(F)(F)F)c1 (stereo unspecified) the results were A1 inh 0.3, AF4-AF9 inh -14, Ecoli rRNA inh 3, Beta cell apopt 4, Ecoli rRNA inh OD600 -4 and Ecoli rRNA inh RFP 0.0.
`Cc1cc(-c2csc(N)n2)c(C)n1C` gave A1 inh 0.6, T cruzi inh 4, Calb FLC 1, RanGTP-Imp inh -1.4, Vif A3G inconclusive and Beta cell apopt 4.
For COC(=O)c1ccc(CSc2cc(C)c3cccc(C)c3n2)o1 the results were A1 inh 0.3, AF4-AF9 inh -2.1, Ecoli rRNA inh 6, T cruzi inh -3, Calb FLC -2, RanGTP-Imp inh -0.2, Beta cell apopt 5, Ecoli rRNA inh OD600 11 and Ecoli rRNA inh RFP 5.6.
O=C(CSCc1n[nH]c(=O)[nH]1)NCCOc1cccc(Oc2ccccc2)c1 was read as A1 inh 0.7, T cruzi inh -4, Calb FLC 21, RanGTP-Imp inh 3.6, Vif A3G 13% and Beta cell apopt -2.
For Cc1nn(CC(=O)N2CCC(C(N)=O)CC2)c(=O)c2nn(-c3ccccc3)c(C)c12 the results were A1 inh 0.0, AF4-AF9 inh -2.1, Ecoli rRNA inh 0, T cruzi inh -12, Calb FLC 1, RanGTP-Imp inh 3.3, Vif A3G 2%, Beta cell apopt 0, Ecoli rRNA inh OD600 -9 and Ecoli rRNA inh RFP -1.8.
`Cc1ccc(CN2CCN(CC(=O)NC(C)CCc3ccccc3)C2=O)cc1` (stereo unspecified) gave A1 inh -0.2, AF4-AF9 inh -5.2, Ecoli rRNA inh 2, T cruzi inh 1, Calb FLC 8, RanGTP-Imp inh 4.9, Vif A3G 1%, Ecoli rRNA inh OD600 -18 and Ecoli rRNA inh RFP -0.1.
Cc1ccc(S(=O)(=O)Nc2c(C)nc3nc[nH]n3c2=O)c(C)c1 was read as A1 inh -0.1, AF4-AF9 inh 1.3, Ecoli rRNA inh 3, T cruzi inh -1, Calb FLC -12, RanGTP-Imp inh 3.2, Vif A3G -5%, Beta cell apopt 2, Ecoli rRNA inh OD600 -1 and Ecoli rRNA inh RFP 1.8.
For CC1CC(NNC(=O)c2ccccc2)=Nc2ccccc2N1C (stereo unspecified) the results were A1 inh 0.1, T cruzi inh 7, Calb FLC -14, RanGTP-Imp inh 4.4, Vif A3G 9% and Beta cell apopt 6.
Screening CC(Oc1ccc(C(=O)NC2CCCCC2)cc1)C(=O)O (stereo unspecified) returned A1 inh 0.0, T cruzi inh -5, Calb FLC 13, RanGTP-Imp inh 1.2, Vif A3G 27% and Beta cell apopt 3.
For O=C(COC(=O)CN1C(=O)C2CCCCC2C1=O)Nc1c(Cl)cccc1Cl (stereo unspecified) the results were A1 inh 0.0, AF4-AF9 inh -1.2, Ecoli rRNA inh 6, Beta cell apopt -9, Ecoli rRNA inh OD600 3 and Ecoli rRNA inh RFP 2.6.
For CC(=O)NC(CC(=O)OC(C)C(=O)Nc1ccc(Cl)cn1)c1ccccc1 (stereo unspecified) the results were A1 inh -0.3, AF4-AF9 inh -0.8, Ecoli rRNA inh 1, T cruzi inh -20, Calb FLC -3, RanGTP-Imp inh 3.2, Vif A3G -3%, Beta cell apopt -3, Ecoli rRNA inh OD600 1 and Ecoli rRNA inh RFP -1.6.
Screening O=C1c2ccccc2C(O)N1Cc1ccccc1Cl (stereo unspecified) returned A1 inh 0.4, AF4-AF9 inh -2.2, Ecoli rRNA inh 0, T cruzi inh -5, Calb FLC -7, RanGTP-Imp inh 1.6, Vif A3G 0%, Beta cell apopt 2, Ecoli rRNA inh OD600 -8 and Ecoli rRNA inh RFP -8.8.
For CN(C(=O)c1cccc(Cl)c1)C1CCCN(Cc2ccccc2F)C1 (stereo unspecified) the results were A1 inh -0.7, AF4-AF9 inh 1.8, Ecoli rRNA inh -4, T cruzi inh 6, Calb FLC 4, RanGTP-Imp inh -1.1, Ecoli rRNA inh OD600 -9 and Ecoli rRNA inh RFP -0.3.
`Cc1ccc(S(=O)(=O)Cn2nnnc2C(CC(C)C)N2CCN(C)CC2)cc1` (stereo unspecified) gave A1 inh -0.5, AF4-AF9 inh 2.8, Ecoli rRNA inh 8, T cruzi inh -23, Calb FLC 1, RanGTP-Imp inh -1.7, Vif A3G 9.9µM*, Beta cell apopt 0, Ecoli rRNA inh OD600 4 and Ecoli rRNA inh RFP 0.8.
`CS(=O)(=O)N1CCCC(c2nc(-c3ccc(S(=O)(=O)NCc4ccccc4)cc3)no2)C1` (stereo unspecified) gave A1 inh 0.1, AF4-AF9 inh 0.2, Ecoli rRNA inh 13, T cruzi inh 32, Calb FLC -2, RanGTP-Imp inh 8.4, Vif A3G 17%&-3%, Beta cell apopt 21, Ecoli rRNA inh OD600 10 and Ecoli rRNA inh RFP -0.3.
Cc1ccc(Cn2c(Sc3ncccn3)nc3c2c(=O)[nH]c(=O)n3C)cc1 was read as A1 inh 0.3, T cruzi inh -18, Calb FLC 4, RanGTP-Imp inh 5.4, Vif A3G 0% and Beta cell apopt 11.
Screening O=C(/C=C/c1ccc([N+](=O)[O-])cc1)NCc1cccs1 returned A1 inh 0.2, T cruzi inh 13, Calb FLC -11, RanGTP-Imp inh inconclusive, Vif A3G 9% and Beta cell apopt -2.
Cc1cnc(=O)[nH]c1SCc1cccc([N+](=O)[O-])c1 was read as A1 inh 0.7, AF4-AF9 inh 4.3, Ecoli rRNA inh 2, T cruzi inh -22, Calb FLC 23, RanGTP-Imp inh inconclusive, Beta cell apopt -3, Ecoli rRNA inh OD600 6 and Ecoli rRNA inh RFP 3.0.
For CC(C)Cc1nnc(NC(=O)CC(=O)Nc2ccccc2C(=O)O)s1 the results were A1 inh -0.2, T cruzi inh -5, Calb FLC -5, RanGTP-Imp inh 0.3, Vif A3G 27% and Beta cell apopt -3.

Source: PubChem
